# AID923: qHTS Assay for Allosteric/Competitive Inhibitors of Caspase-1: Spectroscopic Profiling in AFC Spectral Region | 1.1% of 75,000 active | compound fluorescence, AFC spectral region (405/520 nm); almost no hit is shown here | Potency, µM (doses to about 57.5 µM), for the others: at the top dose fluorescence increase, usual class: activators; active means well fitted activation curve with a large enough effect; inconclusive means small, poorly fitted or top-dose-only effect;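 further: potency means the concentration at half of the fitted maximal effect; 0% is about no effect; scaled to a free AFC standard on each plate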
#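 Baseline compound fluorescence (AFC region, 405 nm ex/520 nm em) taken from the intercept of kinetic reads with 50 nM caspase-1 and 5 uM Ac-WEHD-AFC; normalized to an on-plate AFC standard curve; compounds titrated up to 57 uM.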
# Resorufin autofl: qHTS Assay for Spectroscopic Profiling in Resorufin Spectral Region | Compound fluorescence, resorufin region 547/598 nm, buffer; active compounds read high | max dye-equivalent concentration, M | 0.04% of 59,000 active | AID 588, 2007; active = above 10 nM dye equivalent; inconclusive = 1 to 10 nM; inactive = 1 nM or less; a few of its hits are not listed in these tables; further: highest value over a series up to 38 µM
#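 Read-out: intrinsic compound fluorescence at ex 547/em 598 nm after 15 min at RT in pH 8.0 Tris (100 mM). Values expressed as resorufin-equivalent concentration from per-plate standard series.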
# A488 fluor: qHTS Assay for Spectroscopic Profiling in A488 Spectral Region | compound autofluorescence, A488 spectral region, dye equivalency; active compounds read high | max dye equivalency, M | 0.1% of 59,000 active; active = above 10 nM dye equivalent; inconclusive = 1 to 10 nM; inactive = 1 nM or less; about half of its hits are not listed in these tables;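 further: highest value over a series up to 38 µM; compound alone in buffer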
#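 Compound autofluorescence was read in 100 mM Tris pH 8.0 after 15 min at room temperature, ex 480 nm/em 540 nm. Intensities were converted to A488 dye-equivalent concentration using an on-plate six-point A488 standard curve.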
# TSHR ag: qHTS Assay for Agonists of the Thyroid Stimulating Hormone Receptor. Thyrotropin receptor (Homo sapiens), P16473. 0.48% of 73,000 active. AID 926, 2007. Potency, µM (series often up to 57.1 µM), for the others: top-dose activation, usual class: activators. HEK293-CNG-TSHR cells (CNG channel as cAMP sensor), membrane potential dye, cAMP; active = well fitted activation curve of enough size with the parental cells flat; inconclusive = any curve in the parental cells; inactive = parental cells flat and receptor cells flat or falling; further: potency means the concentration at half of the fitted maximal effect; % of control where 0% means no effect; weak receptor curves with flat parental cells got no call and are not listed
# Target sequence (P16473 whole entry, looked up): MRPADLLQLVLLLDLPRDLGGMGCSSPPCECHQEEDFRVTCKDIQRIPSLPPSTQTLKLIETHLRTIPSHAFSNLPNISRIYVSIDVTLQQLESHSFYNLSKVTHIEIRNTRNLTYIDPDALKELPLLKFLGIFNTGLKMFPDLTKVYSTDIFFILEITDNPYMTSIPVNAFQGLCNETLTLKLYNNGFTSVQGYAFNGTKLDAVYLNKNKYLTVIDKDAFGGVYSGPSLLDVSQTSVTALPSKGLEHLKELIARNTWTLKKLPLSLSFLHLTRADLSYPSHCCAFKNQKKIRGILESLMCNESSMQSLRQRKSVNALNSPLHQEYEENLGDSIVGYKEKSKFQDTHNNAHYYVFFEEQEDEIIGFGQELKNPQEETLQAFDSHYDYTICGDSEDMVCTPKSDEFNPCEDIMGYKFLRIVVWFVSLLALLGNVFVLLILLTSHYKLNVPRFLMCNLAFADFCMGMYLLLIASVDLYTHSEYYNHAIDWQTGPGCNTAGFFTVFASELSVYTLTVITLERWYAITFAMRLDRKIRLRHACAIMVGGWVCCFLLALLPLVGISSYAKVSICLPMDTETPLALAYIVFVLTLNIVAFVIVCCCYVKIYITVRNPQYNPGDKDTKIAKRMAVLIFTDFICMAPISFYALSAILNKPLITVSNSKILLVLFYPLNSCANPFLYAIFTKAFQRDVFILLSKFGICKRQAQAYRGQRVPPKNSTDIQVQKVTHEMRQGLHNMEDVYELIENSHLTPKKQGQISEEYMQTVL
#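 HEK 293 cells stably expressing TSHR and a modified CNG channel, with CNG-only parental cells as counterscreen, were preloaded 60 min at room temperature with membrane potential dye containing 100 uM RO 20-1724. Compound exposure was 30 min, and depolarization was read as fluorescence at 590 nm.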
# A647 fluor: qHTS Assay for Spectroscopic Profiling in A647 Spectral Region; 59,000 tested, under 10 active; Compound fluorescence, A647 channel (570/671 nm), Tris buffer; max dye-equivalent concentration, M; active means above 1 µM dye equivalent; inconclusive means 0.1 to 1 µM; inactive means 0.1 µM or less;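 further: values scaled relative to a standard on each plate; highest value over a series up to 38 µM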
#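 Buffer was dispensed, compounds and Alexa 647 standards were pin-transferred, and plates sat 15 min at room temperature. Intensity at 570/671 nm was then converted to dye-equivalent concentration using the plate's A647 standard curve.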
# The depositor's hits bear a star; i = inactive; ? = inconclusive; nt = no result given; [ ] = dose if it differs, or a comment.
SMILES,AID923,Resorufin autofl,A488 fluor,TSHR ag,A647 fluor
Cc1cc(CCC(=O)O)c(C)cc1CCC(=O)O,nt,i,i,nt,9.47e-08
COC(=O)c1[nH]c2cccc(OC)c2c1NC(=O)CN1CC2(C)CC1CC(C)(C)C2 (configuration not stated),-1.3%,i,i,0.3%,2.6e-09
CC(C)(C)NC(=O)c1ccc2c(c1)N(CC(=O)N1CCN(c3ccccc3F)CC1)C(=O)C(C)(C)O2,0.9%,i,i,9.0%,4.5e-09
O=C(CSc1nc2ccccc2[nH]1)c1ccco1,0.3%,i,i,-1.0%,1.2e-09
OCCn1c(CSc2nnc(-c3ccco3)n2-c2ccccc2)nc2ccc(Cl)cc21,-0.4%,i,i,8.1%,1e-09
CCOc1nc(-c2ccc(OC)cc2)ccc1-c1noc(-c2cc(OC)c(OC)c(OC)c2)n1,4.2%,i,i,1.8%,1e-09
Cc1cc(S(=O)(=O)NCCN(C)C)c(C)s1,-0.6%,i,i,8.3%,2.83e-08
COc1cc(Cl)c(S(=O)(=O)N2CCN(Cc3ccc4c(c3)OCO4)CC2)cc1Cl,-2.0%,nt,nt,19.5%,nt
C=CCNC(=O)c1cccc(Br)c1,0.7%,nt,nt,1.8%,nt
O=C(COc1ccc(S(=O)(=O)N2CCCC2)cc1Cl)Nc1ccc2c(c1)OCO2,0.5%,i,i,-2.4%,3.07e-08
N=C(N)[C@H](N=Nc1ccccc1)C(N)=O,3.3%[11.5 µM],i,i,1.7%[11.4 µM],1e-09
Cc1cc(NO)nc(-c2ccc(Br)cc2)n1,-0.1%,nt,nt,-15.5%,nt
CC(C)(Oc1ccc(Cl)cc1)C(=O)NCCCn1ccnc1,-0.7%,i,i,1.1%,1.85e-08
C/C=C/Cn1c(SCc2ccc(C)cc2)nc2c1c(=O)[nH]c(=O)n2C,0.6%,i,i,?,3.71e-08
COc1cccc(NC(=O)CSc2nnc(C)s2)c1,0.9%,i,i,14.4%,6.9e-09
Nc1nnc(SCc2ccc(F)cc2)s1,1.5%,i,i,-3.9%,3.3e-09
Cn1c(=O)c2c(nc(CN3CCN(c4cccc(Cl)c4)CC3)n2CCc2ccccc2)n(C)c1=O,0.1%,i,i,?,4.56e-08
CCCSc1nnc2n(C)c(=O)c3c4c(sc3n12)CCC4,nt,i,i,nt,1e-09
COC(=O)c1cc(OC)c(OC)cc1NC(=O)c1ccccc1,0.2%,nt,nt,11.5%[11.4 µM],nt
Cc1cc(C)c(C)c(S(=O)(=O)Nc2ccc(O)cc2)c1C,1.1%,i,i,8.8%,2.31e-08
CCOC(=O)c1c(OCC)[nH]c2c1cc(O)c1ccccc12,-0.4%,nt,nt,-16.7%,nt
Cc1cc(NC(=O)Cc2cn3ccsc3n2)n(-c2ccccc2)n1,1.5%,i,i,?,1e-09
CCc1nnc(NC(=O)CCN2C(=O)c3ccccc3S2(=O)=O)s1,0.9%,i,i,-0.4%,3.32e-08
COc1ccc(C(O)CNc2ccc(C)cc2)cc1 (configuration not stated),-1.2%,i,i,-2.2%[11.4 µM],2.72e-08
NCCc1nnc(SCc2ccc(F)cc2)o1,-1.3%,i,i,-10.3%,1e-09
# Following part
SMILES,AID923,Resorufin autofl,A488 fluor,TSHR ag,A647 fluor
C[C@@H](CNC(N)=O)NC(N)=O,0.8%[11.5 µM],i,i,-2.9%[11.4 µM],2.92e-08
CN(C)c1nc(N)nc(CSc2nnnn2-c2cccc3ccccc23)n1,-2.8%,i,i,?,1.02e-08
CC1Cc2ccccc2N1C(=O)COC(=O)Cn1cnc2ccccc2c1=O (configuration not stated),-0.2%,i,i,-39.1%[inhibitor],1.88e-08
Cc1cc(C(=O)N[C@@H](c2ccccc2)[C@]2(C)C[C@H]2[C@@H](C)C(=O)Nc2ccc3ccccc3c2)n(C)n1,-3.5%,nt,nt,14.0%,nt
CCOc1ccccc1NC(=O)c1ccccc1-c1nc(-c2ccccc2OC)no1,-0.3%,i,i,?,2.6e-09
CC(C)(C)N1C(=O)c2ccc(C(=O)NCc3ccco3)cc2C1=O,-0.2%,i,i,-13.7%,1e-09
CN1CCC(N(C)C(=O)COc2ccccc2-c2ccccc2)CC1,-0.4%,i,i,8.6%,1e-09
CCCc1[nH][nH]c(=O)c1C(c1cccc(Cl)c1)C(C#N)C#N (configuration not stated),2.9%,i,i,?,5.08e-08
O=S(=O)(Nc1cnc2ccccc2c1)N1CCCCCC1,0.5%,i,i,10.4%,2.86e-08
CCOC(=O)c1nnn(-c2nonc2OC)c1-c1ccccc1,1.4%,i,i,-4.8%[11.4 µM],2.84e-08
CCOC(=O)N1CCC(N(C(=O)Nc2ccccc2)C(C)CC)CC1 (configuration not stated),-1.0%,i,i,4.7%,8.8e-09
Cc1cc(C)c2c(n1)nn1c(-n3ccnc3)cc(C)nc21,15.0%,i,i,3.0%,2.21e-08
O=C(O)c1cc(S(=O)(=O)Nc2ccc3oc(=O)sc3c2)ccc1O,-0.3%,i,i,13.5%,2.83e-08
O=C(Nc1ccccc1)N1CCC2(CC1)CCN(S(=O)(=O)c1ccccc1)CC2,-2.0%,i,i,2.4%,1.1e-08
N#C/C(=C\c1ccc(O)c(O)c1)S(=O)(=O)c1ccccc1,0.1%,i,i,0.5%,1e-09
Cc1ccc(SCC(=O)NCc2ccco2)cc1,0.3%,i,i,11.4%,4.33e-08
COc1ccc(CNc2ccnc(-c3ccoc3)n2)c(OC)c1,6.0%,i,i,?,1e-09
CCCCCCNc1c(C(=O)OCC)c(=O)[nH]c2ccccc12,-1.8%,i,i,?,1e-09
CCOC(=O)c1[nH]c2cc(OC)c(OC)cc2c1NC(=O)CN1CCN(C)CC1,0.1%,i,i,-0.4%,2.26e-08
N=C(N)CCNC(=O)[C@@H]1CCC(N)=N1,3.4%[11.5 µM],i,i,1.1%[11.4 µM],1e-09
CCn1cc(C(=O)NCc2ccco2)c2cc(OC)c(OC)cc2c1=O,0.3%,i,i,1.3%,2.5e-09
COc1cc(CNc2ncn[nH]2)cc(Br)c1OC,0.2%,i,i,5.2%,3.7e-09
O=C(O)c1cc(N2C(=O)C3C4C=CC(C4)C3C2=O)ccc1NCc1cccnc1 (configuration not stated),0.5%,i,i,-1.2%,2.79e-08
CCOC(=O)C1CCN(C(=O)N2CCOCC2)CC1,-1.4%,i,i,9.9%,1.58e-08
COc1cc(NS(=O)(=O)c2ccc(OC)c(OC)c2)cc(OC)c1,1.4%,i,i,35.9%,5.5e-09

# Among those listed so far, three contain bromine:
SMILES,AID923,Resorufin autofl,A488 fluor,TSHR ag,A647 fluor
C=CCNC(=O)c1cccc(Br)c1,0.7%,nt,nt,1.8%,nt
Cc1cc(NO)nc(-c2ccc(Br)cc2)n1,-0.1%,nt,nt,-15.5%,nt
COc1cc(CNc2ncn[nH]2)cc(Br)c1OC,0.2%,i,i,5.2%,3.7e-09

# Compound profiles (already shown). Order of values: AID923 | Resorufin autofl | A488 fluor | TSHR ag | A647 fluor
# Shown for O=C(O)c1cc(N2C(=O)C3C4C=CC(C4)C3C2=O)ccc1NCc1cccnc1 (configuration not stated) → 0.5% | i | i | -1.2% | 2.79e-08
# Shown for CN1CCC(N(C)C(=O)COc2ccccc2-c2ccccc2)CC1 → -0.4% | i | i | 8.6% | 1e-09
# Shown for COc1cc(NS(=O)(=O)c2ccc(OC)c(OC)c2)cc(OC)c1 → 1.4% | i | i | 35.9% | 5.5e-09
# Shown for CCn1cc(C(=O)NCc2ccco2)c2cc(OC)c(OC)cc2c1=O → 0.3% | i | i | 1.3% | 2.5e-09

# Next records follow.
SMILES,AID923,Resorufin autofl,A488 fluor,TSHR ag,A647 fluor
CCOC(=O)N1CCN(c2c(NCc3cccs3)c(=O)c2=O)CC1,-0.8%,nt,nt,-4.3%,nt
CS(=O)(=O)Nc1ccccc1C(=O)Nc1ccc2c(c1)OCCO2,-1.5%,i,i,-1.2%,1e-09
O=C(Nc1ccccn1)[C@@H]1CCC(=O)N1C(=O)OCc1ccccc1,1.5%,i,i,-3.1%[11.4 µM],1e-09
CN(Cc1ccccc1)c1nc2c(c(=O)[nH]c(=O)n2C)n1CCCc1ccccc1,-1.3%,i,i,10.2%,1.97e-08
O=C(Nc1ccc(Cc2ccc(NC(=O)N3CCOCC3)cc2)cc1)N1CCOCC1,0.8%,i,i,-2.7%,5.6e-09
CCCNC(=O)CN(C)C(=O)c1n[nH]c2ccccc12,0.0%,i,i,?,1.4e-08
CN(C)CCNC(=O)c1ccc(COCC(F)(F)F)cc1,0.7%,i,i,3.7%,3.6e-09
COC(=O)c1cc(NC(=O)Cn2c(=O)cnc3ccccc32)cc(C(=O)OC)c1,-2.2%,i,i,-0.6%,2.4e-09
COCC(=O)Nc1cc(OC)ccc1OC,-0.2%,i,i,3.8%,1.84e-08
O=C(NCc1ccco1)C1CCCN(S(=O)(=O)c2ccc(-n3cnnn3)cc2)C1 (configuration not stated),0.4%,i,i,?,1.41e-08
COc1ccc(OC)c(C2CC(=O)N3CN(c4cccc(Cl)c4)CSC3=C2C#N)c1 (configuration not stated),3.1%,nt,nt,0.0%,nt
Cc1cccc(N2CCN(C(=O)c3ccncc3)CC2)c1C,0.0%,i,i,nt,1e-09
COCCNC(=O)c1ccc(Cc2nc3ccccc3[nH]2)cc1,0.9%,nt,nt,0.3%,nt
Brc1ccc(-c2nn3c(-c4ccccn4)nnc3s2)o1,8.2%,i,i,2.6%,4.2e-09
COC(=O)C1=C(C)Nc2ncnn2C1c1ccc(C)o1 (configuration not stated),3.0%,nt,nt,-3.8%,nt
N#Cc1nc(COc2ccccc2)oc1NCCCn1ccnc1,-1.7%,i,i,11.1%,1e-09
O=C1c2cccnc2C(O)N1Cc1ccccc1 (configuration not stated),-0.6%,i,i,4.3%,1e-09
Cc1cc(=O)[nH]c(Nc2cccc(C(F)(F)F)c2)n1,1.3%,i,i,-12.1%,2.62e-08
CCCN1C(=O)c2cc(C(=O)NC3CCCC3)ccc2C1O (configuration not stated),-3.7%,nt,nt,2.6%,nt
O=C(CSc1ccccc1C(=O)O)Nc1cccc(C(=O)O)c1,-3.5%,i,i,3.0%,1.83e-08
Cc1nnc2n(-c3ccccc3)c(=O)c3c4c(sc3n12)COC(C)(C)C4,nt,i,i,nt,3.67e-08
CC1CCC(C(=O)NC(C(=O)NCCCN2CCOCC2)C(C)C)CC1 (configuration not stated),0.6%,i,i,?,2.7e-08
Oc1cc(O)c2c(c1)O[C@H](c1ccc(O)c(O)c1)[C@@H](O)C2,-1.9%,i,i,-0.1%,6.6e-09
O=C(NCc1ccccc1)c1c(F)c(F)c(F)c(F)c1F,-1.0%,i,i,?,1e-09
COCCn1nnnc1C(CC(C)C)N1CCN(C(=O)c2ccco2)CC1 (configuration not stated),0.9%,i,i,-0.3%,1e-09
# (more compounds)
SMILES,AID923,Resorufin autofl,A488 fluor,TSHR ag,A647 fluor
O=C(CCn1c(=O)sc2ccccc21)Nc1nccs1,-0.4%,i,i,-0.6%,3.07e-08
CCOC(=O)c1sc(N2C(=O)C(O)=C(C(=O)c3ccco3)C2c2ccccc2)nc1C (configuration not stated),1.6%,i,i,nt,1e-09
FC(F)(F)c1cc(-c2ccccc2)nc(N2CCCCCC2)n1,2.5%,i,i,-4.2%,6.2e-09
O=C(Nc1ccc(N2CCN(C(=O)c3ccco3)CC2)cc1)c1ccc(F)cc1,-1.8%,i,i,-16.6%,2.5e-08
COc1ccc(C(=O)N2CCCC(c3nc(-c4cccs4)no3)C2)cc1 (configuration not stated),-2.6%,i,i,?,9e-09
COc1ccc(NC(=O)c2cnc3ccccn3c2=O)cc1OC,-1.9%,nt,nt,1.1%,nt
COc1ccccc1NC=C1C(=O)OC(C)(C)OC1=O,-2.4%,nt,nt,-4.6%,nt

# Screening data from PubChem BioAssay.

# These rows are one share of the data, so the mix of outcomes need not match the whole.
